# UUG fidelity: modulators of start codon recognition fidelity in yeast; activity score, % at 18.7 µM; S. cerevisiae UUG-firefly luciferase reporter, luminescence/redox ratio; 0.13% of 350,000 active; AID 602363;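 active = replicate mean at a twofold rise or more, about +100% in these data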;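 also: firefly luciferase made from a UUG start codon reports start codon fidelity; reporter light over untreated wells divided by growth signal over untreated wells; some hits fall short of that in this replicate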
# Rce1 inh: inhibitors of yeast Ras-converting enzyme; AID 2563; yeast membranes, quenched prenylated peptide cleavage fluorescence; 0.27% of 290,000 active; Q03530; calls only;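 active = fall in fluorescence gain of 50% or more versus controls, with final raw signal at or below 3038400; inconclusive = same 50% fall but final raw signal above 3038400; inactive = fall in fluorescence gain under 50%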;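 also: plate controls were neutral control wells for no effect and wells lacking membranes for full effect; tested at 10 µM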
# Env fusion inh: inhibitors of HIV Env-mediated cell fusion; HeLa-JRFL Env/CEM21 cell fusion, luciferase; inhibition, % at 12.3 µM; 1.1% of 360,000 active; AID 651610;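 active = mean replicate inhibition score of at least 50 and every replicate individually at or above 50; inconclusive = only one of the two criteria met; inactive = mean below 50 and not all replicates reaching 50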;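 also: 0% = plate neutral controls and 100% = maraviroc near 300 nM; one replicate is shown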
# eIF4H inh: inhibitors of RNA binding by human eIF4H; eIF4H fluorescence polarization binding assay; inhibition, % at 35 µM; 0.94% of 290,000 active; AID 2012;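 active = 50% or more with normal probe brightness, or confirmed in later tests; inconclusive = above 50% with abnormal brightness, or retests that disagree; inactive = below 50% or failed in later tests; about a fifth of its hits are not listed in these tables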;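 also: calls also rest on retests at 20 µM and on dose response follow-up; 0% = protein and probe with vehicle and 100% = probe without protein; strong numbers were not always called active; many hits fall short of the cut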
# PABP polyA inh: blocks human PABP binding to poly(A) RNA; fluorescence polarization; P11940; inhibition, % at 35 µM; 1% of 290,000 active;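 active = 50% or more with normal probe brightness, or confirmed in later tests; inconclusive = above 50% with abnormal brightness, or retests that disagree; inactive = below 50% or failed in later tests; about a fifth of its hits are not listed in these tables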;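 also: calls also rest on retests at 20 µM and on dose response follow-up; controls were probe without protein and protein plus probe with vehicle; some compounds called inactive have numbers as strong as hits; many hits fall short of the cut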
# Target sequence (P11940 whole entry, looked up): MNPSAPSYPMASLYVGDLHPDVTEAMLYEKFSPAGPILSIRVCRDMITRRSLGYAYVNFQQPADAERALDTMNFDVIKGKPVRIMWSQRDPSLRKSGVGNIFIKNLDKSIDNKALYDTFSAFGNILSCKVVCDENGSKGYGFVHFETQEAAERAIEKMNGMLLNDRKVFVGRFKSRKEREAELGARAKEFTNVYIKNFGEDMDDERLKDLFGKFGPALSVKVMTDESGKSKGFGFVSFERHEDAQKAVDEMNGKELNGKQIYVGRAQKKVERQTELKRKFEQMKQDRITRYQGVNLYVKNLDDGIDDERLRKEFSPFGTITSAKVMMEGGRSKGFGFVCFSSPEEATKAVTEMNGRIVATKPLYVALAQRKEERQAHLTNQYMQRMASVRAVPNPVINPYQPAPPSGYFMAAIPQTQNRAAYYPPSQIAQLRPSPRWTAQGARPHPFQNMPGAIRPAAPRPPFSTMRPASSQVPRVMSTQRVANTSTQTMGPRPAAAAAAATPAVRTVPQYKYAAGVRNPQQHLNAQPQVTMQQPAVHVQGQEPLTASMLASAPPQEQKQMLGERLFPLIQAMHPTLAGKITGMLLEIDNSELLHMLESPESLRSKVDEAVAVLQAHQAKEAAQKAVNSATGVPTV
# MT1-MMP act inh: MT1-MMP (human) activation inhibition | P50281 | HT1080 RFP-PRO-GFP cells, GFP/RFP ratio fluorescence, overnight; percent of plate control window, DMSO zero | GFP/RFP ratio change, % at 20 µM | 0.061% of 360,000 active | AID 651647;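 active = GFP/RFP ratio change of at least 30% with cell ATP level not reduced by more than half and red fluorescence within 50% of control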; also: strong numbers were not always called active
#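 Test system: HT1080 RFP-PRO-GFP cells; Benchmarks: DMSO and RFP-L50D-GFP cell wells; Timing: cells overnight before dosing, compound overnight, 37 °C, 5% CO2; Compound: one 20 µM compound dose with 1% DMSO; Read-out: GFP/RFP fluorescence ratio.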
# CSC inhib: blocks cancer stem cells. inhibition, % at 7.5 µM. AID 2717. 1.1% of 300,000 active. cancer stem cell-like cells viability, luminescence;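 active = mean at 75% or more and at least half the replicates too; inconclusive = mean and replicates disagree; tested in HMLE shEcad cells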;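 also: 0% = median of negative and 100% = median of positive control wells; the first replicate is given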
# eIF4H inh retest: second read-out of eIF4H inh, no call of its own (marks repeat the call); inhibition, %; compound at 20 µM; confirmation average;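 mean of two retest wells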
# PABP polyA inh retest: recorded beside PABP polyA inh, whose call it bears; inhibition, %; compound at 20 µM; confirmation repeats;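 mean of two retest wells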
# MT1-MMP act inh RFP: recorded beside MT1-MMP act inh, whose call it bears; RFP signal change, %; measured here: RFP expression control read;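 0 = vehicle wells; hits needed this value within 50% of zero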
# * hit, by the source's call; i = inactive; ? = inconclusive; / = not tested or not shown. This is a random part of the collection; overall some 2.9% were active at least once.
SMILES,UUG fidelity,Rce1 inh,Env fusion inh,eIF4H inh,PABP polyA inh,MT1-MMP act inh,MT1-MMP act inh RFP,CSC inhib,others
CC1CC(C)CN(C(=O)C2CCN(S(=O)(=O)c3cccc4cccnc34)CC2)C1 (stereo not given),1,i,/,/,/,0,0,-7,
Cc1ccc(NC(=O)CSc2nnc(C(F)(F)F)n2C)cc1[N+](=O)[O-],/,i,-52,11,-18,2,7,1,
Cc1ccccc1Nc1c(-c2cccnc2)nc2ccccn12,-10,i,-32,0,1,-2,2,1,
Cc1nnc(SCC(=O)N2CCCC2)n1-c1ccc(F)cc1,5,i,10,/,/,0,5,-4,
O=C1CN(C(=O)/C=C/c2ccc(Cl)cc2Cl)CCN1,-23,i,0,6,5,0,-1,-5,
CCC(=O)Nc1cc2c(cc1C(=O)c1ccccc1)OCCO2,-5,i,/,-3,-7,-3,-2,-1,
COc1ccc(C2CCCN2C(=S)Nc2cccc(Cl)c2C)cc1OC (stereo not given),-27,i,13,-6,5,6,-7,3,
NC(=S)N/N=C/c1ccc(-c2ccc([N+](=O)[O-])cc2)o1,/,i,-14,11,0,-5,-2,-6,
CCOC(=O)C1=C(CN2CCc3ccccc32)NC(=O)NC1c1cccc([N+](=O)[O-])c1 (stereo not given),-1,i,64*,4,6,-3,-2,/,
O=c1ccc2cc(S(=O)(=O)N3CCOCC3)ccc2o1,-12,i,/,5,9,-6,0,-5,
CC(C)(C)c1ccc(C(=O)NCCN2CCCC2)cc1,/,i,-7,0,10,7,5,4,
CSc1ccc(CN2CCN(C(=O)c3ccncc3)CC2)cc1,/,i,-3,4,-2,1,-8,-16,
COc1ccccc1NC(=O)Nc1nnc(-c2ccco2)s1,/,i,/,10,3,/,/,0,
COc1ccc(N(CC(=O)N2CCCCCC2)S(=O)(=O)c2ccccc2)cc1,-11,i,-4,-24,2,0,4,-5,
CC(=O)Nc1ccc(NC(=O)COc2ccc(Br)cc2C)cc1,-16,i,/,-3,-10,1,5,11,
O=C(O)c1ccc(S(=O)(=O)N2CCC(c3nc(-c4ccccc4Cl)no3)CC2)cc1,-1,i,-36,9,15,14,4,4,
Cc1ccccc1NC(=O)N1CCCC(c2nc(-c3ccc(F)cc3)no2)C1 (stereo not given),-6,i,?,-3,-8,26,-2,-5,
CCCc1nn(C)c2c1C(c1cccnc1)C(C#N)=C(N)O2 (stereo not given),/,i,-37,-8,-2,-3,-1,/,
COc1ccc(NS(=O)(=O)c2csc(C(=O)Nc3ccccc3)c2)cc1,-3,i,19,-5,2,1,-13,-32,
O=C(c1ccc(COc2ccc(Cl)cc2Cl)o1)N1CCCC1,-3,i,18,6,1,2,-4,-6,

# Brought forward from above: two compounds; new compounds follow.
SMILES,UUG fidelity,Rce1 inh,Env fusion inh,eIF4H inh,PABP polyA inh,MT1-MMP act inh,MT1-MMP act inh RFP,CSC inhib,others
COc1ccc(NS(=O)(=O)c2csc(C(=O)Nc3ccccc3)c2)cc1,-3,i,19,-5,2,1,-13,-32,
O=C(c1ccc(COc2ccc(Cl)cc2Cl)o1)N1CCCC1,-3,i,18,6,1,2,-4,-6,
COc1ccc(S(=O)(=O)Nc2cc3c4c(c2)CCN4C(=O)CC3)cc1,-5,i,-3,/,/,5,4,0,
CC(=O)n1cc(/C=N/NC(=O)c2sc(C)nc2C)c2ccccc21,-13,/,-46,-10,-6,7,-1,15,
CC(C)C[C@H](NC(=O)OC(C)(C)C)c1nnc(SCc2ccccc2)o1,-14,i,6,3,3,-5,-12,-1,
COc1cccc(NC(=O)c2nc3ncccn3n2)c1,-22,i,/,8,0,-3,5,-8,
CCOc1ccc(S(=O)(=O)N2CCC(C(=O)N3CCCCCC3)CC2)cc1C,-15,i,15,-10,-2,/,/,-5,
O=C(CN1C(=O)C2CCCCC2C1=O)Nc1ccc(S(=O)(=O)Nc2ncccn2)cc1 (stereo not given),-19,i,10,-9,-2,2,1,/,
COc1ccc(NC(=O)C(=O)Nc2cccc3cccnc23)cc1OC,2,i,-149,29,14,3,0,1,
COc1cccc(NC(=S)N2CCC(NC(=O)c3ccco3)CC2)c1,-27,i,2,-8,0,3,4,-1,
CC(C)(C)NCc1cc(Cl)ccc1OCc1ccccc1F,/,i,-14,4,-6,-1,3,-8,
C/C(=N\NS(=O)(=O)c1ccc(C(C)(C)C)cc1)c1ccccc1,-4,i,15,-5,2,0,2,-8,
CC1=C(C(=O)OCC2CCCO2)C(c2ccsc2)C2=C(CC(C)(C)CC2=O)N1 (stereo not given),/,i,12,-6,-10,2,6,/,
COc1ccc([C@H]2CC(=O)C=C(c3ccc4ncccc4c3)C2)cc1,-19,/,-116,/,/,0,-18,47,
COC(=O)c1cccc(C(=O)Nc2ccc(C)cc2)n1,-18,i,-4,-3,-3,-4,3,8,
COc1ccccc1C(=O)NCCC(=O)N1CCN(c2ccc(C(F)(F)F)cn2)CC1,10,/,14,/,/,2,-5,/,
COc1cc2c(cc1NC(=O)c1cc(-c3cccnc3)nc3ccc(C)cc13)oc1ccccc12,/,i,/,-19,-11,-4,-5,22,
CC(C)(C)c1ccc(-c2nnc(N)s2)cc1,-22,i,-84,4,7,5,-1,9,
CCN(CC(=O)Nc1ccccc1C(F)(F)F)C(=O)c1cc(-c2cccs2)nn1-c1ccccc1,-12,i,/,3,-3,3,2,38,
O=C(CN(CC1CCCO1)C(=O)CNS(=O)(=O)c1ccc(Cl)cc1)NCc1ccc(F)cc1 (stereo not given),8,i,1,-15,-5,1,2,-8,
COc1ccccc1-c1cnnc(N/N=C/c2ccc(-c3cccc(Br)c3)o2)n1,-1,i,-18,-5,-9,5,-9,-7,
CC1CCN(C(=O)CSc2nc(C(C)C)nc3c2c(=O)n(C)c(=O)n3C)CC1,-14,i,/,-11,10,10,-13,21,
C=CCOC(=O)C1=C(C)Nc2nnnn2C1c1cccs1 (stereo not given),-4,i,-146,4,1,-5,-5,19,
c1ccc(COc2ccc(OCCCCN3CCCC3)cc2)cc1,-34,i,-65,12,-3,4,0,-3,
O=C(NCc1ccco1)c1ccc2snnc2c1,-4,i,/,9,2,-9,-3,-2,
Cc1ccc(SCC(=O)OCC(=O)N2CCN(C(=O)c3ccco3)CC2)c(C)c1,9,i,/,/,/,-4,2,-7,
COC(=O)c1[nH]c2ccc(C)cc2c1NC(=O)Nc1ccc(OC)cc1,-17,i,/,-6,7,-6,-3,0,
COc1ccc(C(=O)/C(=C/N(C)C)S(=O)(=O)c2ccccc2)cc1,/,i,-15,7,1,0,4,-1,
Cc1ccc(C(C)C)c(OCC(=O)NNCC(=O)Nc2cccc(F)c2)c1,-15,/,/,/,/,2,2,-8,
CCNC(=S)N/N=C(\C)c1cc2ccccc2o1,/,i,-15,7,-10,9,2,/,
CCCn1c2c(c(O)c(C(=O)NC)c1=O)CCCC2,-16,i,/,-5,-4,-7,-1,/,
O=C(OCc1ccccc1)N1CCC2CC1c1cc(-c3cc4ccccc4o3)ccc12 (stereo not given),-12,/,5,/,/,0,-6,/,
C[C@@H]1CN([C@@H](C)CO)S(=O)(=O)c2ccc(Br)cc2O[C@H]1CN(C)C(=O)c1ccncc1,-8,/,10,/,/,7,-1,/,
COCCNC(=O)CN1CCC(NC(=O)C(C)(C)C)CC1,-20,i,/,3,-14,6,6,16,
CSc1ncccc1C(=O)Nc1cc(C)ccn1,-4,i,-1,0,-1,0,0,2,
COc1ccc(-n2c(COc3ccc(C)cc3)nnc2SCC(N)=O)cc1,-6,i,/,-3,2,-5,2,-2,
CCCCN(C=O)c1c(CC)nc2c(OCC(=O)C(C)(C)C)cccn12,-9,/,16,/,/,-1,4,/,
CCSc1nc2ccccc2n1C(=O)Oc1ccccc1,/,i,8,-3,4,3,7,-9,
CC(C)S(=O)(=O)C1=NSC2=NC(=O)/C(=C\c3ccc(OC(=O)c4ccco4)cc3)C(=N)N21,-3,i,-10,10,7,-3,2,-16,
CSc1ccccc1NC(=O)C1CCCO1 (stereo not given),6,i,/,6,-4,-1,-1,-4,
COc1ccccc1C(=O)C1CCCN(C(=O)c2cn3cc(Cl)ccc3n2)C1 (stereo not given),-9,/,6,9,6,1,-1,-3,
CSc1nc(N2CCOCC2)nc2ccc(C)cc12,-5,i,12,/,/,1,-1,6,
CCN(CC)c1ccc(/C=N/NC(=O)CC(C)C)cc1,-11,i,8,2,-1,0,1,-14,
Cc1onc(-c2ccccc2)c1CNC(=O)C1COc2ccccc2O1 (stereo not given),/,i,?,-4,0,-1,-5,-5,
CCOC(=O)/C(C#N)=C/C=C1\C=Cc2ccccc2N1CC,/,i,-15,?,?,-76,5,3,
O=C(Nc1cccc(C(=O)NC2CC2)c1)c1ccc(Cl)c(S(=O)(=O)N2CCOCC2)c1,-1,/,-11,/,/,1,-1,-10,
CCOC(=O)c1ccc(S(=O)(=O)N2CCN(CC(=O)NC(=O)NC3CCCCC3)CC2)cc1,0,i,19,-1,8,1,0,-14,
CCC1CCCCN1C(=O)CCS(=O)(=O)c1ccccc1 (stereo not given),-20,i,-32,-5,1,-2,0,-11,
CC(C)NC[C@@H](O)COc1ccc(CC(N)=O)cc1,-3,i,30,/,/,2,5,-8,
CCc1cc2c(=O)n(Cc3ccco3)c(SCC(=O)NCC3CCCO3)nc2s1 (stereo not given),-10,i,51,-14,13,0,-13,-2,
O=C(Nc1cc(S(=O)(=O)N2CCOCC2)ccc1Cl)C(=O)c1c(-c2ccccc2)cc2ccccn12,-6,i,40,-3,-4,-1,-7,-12,
COc1ccccc1NC(=O)COC(=O)CCn1c(C)csc1=O,/,i,6,/,/,-1,4,-13,
CCn1c(SCC(=O)Nc2ccc(C)cc2)nnc1-c1cnccn1,/,i,-13,-6,-4,-2,2,-24,
Oc1[nH]c2ccccc2c1N=Nc1ccccc1F,/,i,-79,?,0,-105,2,-4,
C=CCN(C(=O)c1csnn1)C(C(=O)NCc1ccccc1)c1c(F)cccc1Cl (stereo not given),-11,i,-2,-5,5,-2,1,-11,
CN(C)S(=O)(=O)c1cccc(NC(=S)NC(=O)c2ccco2)c1,-5,/,-46,/,/,2,2,/,
CC(=O)N1CC(C)Oc2ccc(S(=O)(=O)NC(CC(=O)O)c3cc(C)ccc3C)cc21 (stereo not given),9,i,-4,-10,-1,-2,0,-12,
Cc1ccc2c(CN(C)Cc3cccc(Cl)c3)cc(=O)oc2c1C,-4,i,34,0,10,-9,-4,/,
CC(Oc1ccc(Br)cc1)c1nc2c3ccccc3nc(=S)n2[nH]1 (stereo not given),/,i,48,12,-10,-1,-9,15,
COC(=O)c1cc2n(n1)CCN(Cc1ccc(F)cc1)C2=O,/,i,/,1,0,3,5,-7,
CCCOc1c(Cl)cc(C(=O)Nc2ccc3c(c2)OCO3)cc1OCC,3,i,/,-10,-4,/,/,79*,
O=C(CN1CCN(C(=O)C2CCCO2)CC1)Nc1ccc(F)cc1 (stereo not given),-22,i,29,2,16,0,3,-14,
CCc1ccc(OCC(=O)N/N=C/c2cc([N+](=O)[O-])ccc2N2CCOCC2)cc1,5,i,/,8,67,3,-8,-1,eIF4H inh retest=0;PABP polyA inh retest=4

# Bioassay records (PubChem BioAssay)
